Screening data deposited in PubChem by National Center for Advancing Translational Sciences (NCATS).
Cruzain inh Det: blocks cruzain activity in presence of Triton detergent. P25779. Potency, µM, for inactives: max response, negative = inhibition, most hits filed as inhibitors. 0.43% of 200,000 active. purified cruzain, Z-FR-AMC fluorescence, 0.01% Triton; active means well fitted curve in the direction sought with a large enough effect; inconclusive means small, poorly fitted or top-dose-only effect, or another doubt; inactive means no such curve, though single readings can be large; an effect the other way counts as inactive or inconclusive;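 further: plate controls were neutral wells for no effect and buffer without enzyme for full effect; nearly all actives have a fitted effect of over 40% in size; top concentration of the series not given in the record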
Target sequence (P25779 123-467 limits assumed): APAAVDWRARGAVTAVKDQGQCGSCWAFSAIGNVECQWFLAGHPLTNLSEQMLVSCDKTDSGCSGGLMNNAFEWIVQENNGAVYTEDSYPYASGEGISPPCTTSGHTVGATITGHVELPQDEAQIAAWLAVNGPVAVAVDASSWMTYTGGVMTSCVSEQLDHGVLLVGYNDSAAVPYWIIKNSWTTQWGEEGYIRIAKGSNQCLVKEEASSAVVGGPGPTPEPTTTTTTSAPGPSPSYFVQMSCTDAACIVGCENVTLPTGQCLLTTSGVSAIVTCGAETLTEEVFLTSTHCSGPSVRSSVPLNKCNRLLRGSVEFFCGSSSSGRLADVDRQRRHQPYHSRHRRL
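15 min RT preincubation of 1.5 nM cruzain with compound, then 2 uM Z-FR-AMC added; kinetic AMC fluorescence, 60 s delta. Triton X-100 0.01%, pH 5.5.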
MARV entry inh: inhibitors of Marburg virus binding or cell entry; Marburg virus pseudotyped entry inhibition, cell reporter; control for the full effect not named in the record; about a third of the inactives were read at about 46 µM; Potency, µM (top dose mostly 37.8 µM), inactives show top-dose activity change, negative = inhibition, hits mostly inhibitors; 1.8% of 300,000 active; active = well fitted inhibition curve with a large enough effect; inconclusive = small, poorly fitted or top-dose-only effect, or effect the other way; inactive = flat fitted curve, though single readings scatter; tested in HEK293 cells; about a fifth of its hits are not listed in these tables; further: on the % scale 0 is the no-effect control and ±100 the full control effect; luciferase read-out
Lassa entry inh: blocks Lassa virus binding to or entry into cells; AID 540256; Potency, µM (series often up to 37.9 µM), for inactives: top-dose activity change, negative = inhibition, usual class: inhibitors; Lassa virus pseudotype entry inhibition, cell reporter; control for the full effect not named in the record; 1.2% of 300,000 active; active means well fitted inhibition curve with a large enough effect; inconclusive means small, poorly fitted or top-dose-only effect, or effect the other way; inactive means flat fitted curve, though single readings scatter; tested in HEK293 cells; further: on the % scale 0 is the no-effect control and ±100 the full control effect; nearly all actives have a fitted effect of over 50% in size; luciferase read-out
Cruzain inh noDet: inhibitors of Trypanosoma cruzi cruzain without detergent; P25779; purified cruzain, Z-FR-AMC fluorescence, no detergent; Potency, µM, without a hit: max response, negative = inhibition, most hits filed as inhibitors; 2.3% of 200,000 active; active means well fitted curve in the direction sought with a large enough effect; inconclusive means small, poorly fitted or top-dose-only effect, or another doubt; inactive means no such curve, though single readings can be large; an effect the other way counts as inactive or inconclusive;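 further: plate controls were enzyme without inhibitor for no effect and buffer without enzyme for full effect; nearly all actives have a fitted effect of over 40% in size; top concentration of the series not given in the record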
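Purified cruzain at 1.5 nM, pre-incubated 15 min with compound at room temperature in 100 mM sodium acetate pH 5.5, 5 mM DTT, 0.00005% Triton X-100. Reaction started with 2 uM Z-FR-AMC; AMC fluorescence increase over 60 s gives rate.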
2A StopGo: FMDV 2A StopGo reporter, luciferase signal. 1.2% of 410,000 active. AID 1159524. Potency, µM (doses to about 57.9 µM), for inactives: at the top dose signal change, negative = less light. human cells with a luciferase reporter of 2A StopGo recoding; control for the full effect not named in the record; active = well fitted falling curve with a large enough effect; inconclusive = small, poorly fitted or top-dose-only effect; inactive = no such curve, though single readings can be large or run the other way; tested in HEK293T cells; further: on the % scale 0 is the no-effect control and ±100 the full control effect; nearly all actives have a fitted effect of over 45% in size; luciferase light after 4 h
NS1 function inh: blocks influenza NS1 protein function | S. cerevisiae slowed by influenza A NS1, growth recovery by OD600 | Potency, µM (doses to about 46.1 µM), inactives show at the highest dose activity, positive = more growth | 0.4% of 270,000 active; further: actives are rising curves; nearly all actives have a fitted effect of over 50% in size
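Growth recovery, yeast-based: influenza A NS1 expressed in S. cerevisiae causes slow growth, and suppressors are detected by OD600. The parent strain without NS1 is used as positive control.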
SARS PLP yeast: SARS-CoV PLP inhibition in yeast; S. cerevisiae expressing SARS-CoV PLpro, growth rescue; control for the full effect not named in the record; Potency, µM (series often up to 32.9 µM), without a hit: at the highest dose activity, positive = growth rescue; 0.19% of 330,000 active; further: 0% is about no effect; nearly all actives have a fitted effect of over 55% in size; growth read by luminescence after 48 h
RE007 growth inh: less growth of the S. pombe RE007 Vpr strain. S. pombe RE007 Vpr strain, BacTiter-Glo ATP luminescence, 24 h; control for the full effect not named in the record. Potency, µM (top dose mostly 92.2 µM), without a hit: top-dose activity change, negative = less growth. 0.21% of 360,000 active; active = well fitted falling curve with a large enough effect; inconclusive = small, poorly fitted or top-dose-only effect; inactive = no such curve, though single readings can be large or run the other way;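 further: on the % scale 0 is the no-effect control and ±100 the full control effect; nearly all actives have a fitted effect of over 50% in size; the assay follows cell death caused by Vpr and the record does not say whether a fall means rescue or toxicity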
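Fission yeast RE007 carrying one integrated HIV-1 vpr copy, seeded at OD 0.01 in PMG+AL medium with 23 nL pinned compound. Grown 24 h at 30 degrees; viability read by BacTiter-Glo luminescence after 5 min.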
* = called active by the depositor; u = inconclusive; x = no result given; & = joins results of further samples; [ ] = remark or other dose. Unless noted, the call rests on the fitted dose curve; in most records, active means well fitted rising curve with a large enough effect; inconclusive means small, poorly fitted or top-dose-only effect; inactive means no such curve, though single readings can be large or run the other way. Potency means the concentration at half of the fitted maximal effect. Not a hit list; overall some 4.6% were active at least once.

SMILES | NS1 function inh | SARS PLP yeast | Lassa entry inh | Cruzain inh noDet | Cruzain inh Det | MARV entry inh | RE007 growth inh | 2A StopGo
CC(=O)c1ccc(S(=O)(=O)NC2CC(=O)N(c3ccc(Cl)cc3)C2)cc1 (stereo not given) | x | -4% | 0% | x | x | -18% | -2% | -19%
CC(Sc1nncn1C)C(=O)NCCC1=CCCCC1 (stereo not given) | x | 11% | 16%[46.1 µM] | x | x | 17%[46.1 µM] | -6% | 1%
FC(F)(F)c1cccc(Cc2noc(CN3CCCCC3c3ccccn3)n2)c1 (stereo not given) | -1% | -2% | -20%[46.1 µM] | x | x | u | 8% | u
COc1ccc(NC(=O)CCc2nc(-c3ccc(C)cc3)no2)cc1Cl | -10% | 5% | 7% | -2% | -1.6% | -1% | 5% | -3%
Cc1ccc2[nH]c(-c3ccccc3)c(CN3CCOCC3)c(=O)c2c1 | 4% | -1% | 2% | -4% | -0.3% | 0% | 4% | 28%
COC(=O)c1c(C)nsc1NC(=O)Oc1ccccc1 | -1% | -3% | 29%[46.1 µM] | x | x | 4%[46.1 µM] | 7% | 0%
CCNC(=S)N(CCc1c(C)[nH]c2ccc(C)cc12)Cc1cccnc1 | 5% | -1% | u | x | x | u | -10% | -29%
CCCCn1c(SCC(=O)NC2CC2)nc2ccccc2c1=O | -12% | -5% | x | x | x | x | 12% | -7%
Cc1ccc2nc(SCc3nc4ccccc4c(=O)[nH]3)[nH]c2c1 | x | 1% | u | x | x | u | -11% | -11%
CCOC(=O)/C(C#N)=C1/C=CN(C)C(C)=N1 | -6% | 1% | 2% | -17% | -7.9% | 18% | -7% | x
Cn1c(N)c(C(=O)COC(=O)C2(c3cccc(F)c3)CCCC2)c(=O)n(C)c1=O | -36% | 8% | u | u | -2.1% | -29% | 21% | -21%
O=C(COc1ccc2ccc(=O)oc2c1)OCc1ccccc1 | -6% | 0% | x | x | x | x | 0% | 0%
COc1cccc(C(=O)N(C)CC(=O)Nc2ccc(F)c(F)c2F)c1 | 0% | -1% | 26%[46.1 µM] | x | x | 18%[46.1 µM] | 2% | -6%
COc1ccc2[nH]c3nc(SCc4nnc(-c5ccc(C)cc5)o4)nnc3c2c1 | -3% | -3% | -11% | -8% | -3.8% | u | -4% | u
Cc1ccc(-c2noc(CSc3nnc(-c4cccs4)n3C)n2)cc1 | -8% | 1% | 7% | -7% | -6.2% | -3% | -13% | -15%

(more compounds)
SMILES | NS1 function inh | SARS PLP yeast | Lassa entry inh | Cruzain inh noDet | Cruzain inh Det | MARV entry inh | RE007 growth inh | 2A StopGo
Cc1ccc(N2C(=O)CC(Sc3ncccc3C(=O)O)C2=O)cc1 (stereo not given) | 6% | -2% | -1% | x | x | 2% | 1% | 21%
C=CCOC(=O)C1=C(C)NC(=O)NC1c1cc2c(cc1Br)OCO2 (stereo not given) | 23% | 4% | x | x | x | x | 2% | 0%
CC1(C)CC(=O)C2=C(C1)N(Cc1ccco1)C(=O)C2(NC(=O)c1cccnc1)C(F)(F)F (stereo not given) | 5% | 3% | -5% | 24% | 7.1% | u | -7% | 13%
CCOc1ccccc1NC(=O)/C(C#N)=C/c1cccnc1 | -4% | 0% | 0%[46.1 µM] | x | x | -4%[46.1 µM] | -5% | -25%
CNC(=O)COC(=O)c1ccc(NC(=O)CC#N)cc1 | 7% | 5% | u | -11% | -0.3% | -4% | 16% | 7%
Cc1cc(C)n(CCNC(=O)CC2C(=O)NCCN2Cc2ccccc2C(F)(F)F)n1 (stereo not given) | 1% | 2% | -1% | x | x | 10%[46.1 µM] | 3% | -10%
Cc1c(NS(=O)(=O)c2cccc(C(=O)N3CCC(C)CC3)c2)c(=O)n(-c2ccccc2)n1C | x | 0% | 1%[46.1 µM] | x | x | -10%[46.1 µM] | -24% | 8%
CC(=O)Nc1nc(C)c(Oc2ccc(Cl)cc2Cl)c(=O)[nH]1 | -2% | -7% | u | 0% | -1.0% | 1% | -1% | 4%
COc1ccc2c(c1)C(c1ccc(C)o1)=NNC(c1cccnc1)=N2 | 4% | -1% | u | x | x | u | -7% | -10%
COc1cc(C(=O)OCc2ccc(C)cc2)cc(NC(=O)c2cccs2)c1OC | 8% | 9% | -11% | 11% | -5.3% | 0%[46.1 µM] | 4% | 0%
O=C(CSCc1cccc(Cl)c1)N/N=C/c1ccc(OCC(=O)N2CCCCC2)cc1 | -22% | -1% | u | 16% | 1.2% | u | 9% | x
Cc1ccc(-n2c(C)nnc2SCC(=O)N2CCOCC2)cc1 | -7% | 5% | u | x | x | 9%[46.1 µM] | 0% | -14%
CN(C)S(=O)(=O)c1ccc(NC=O)cc1 | 4% | 1% | -1% | x | x | u | 2% | 11%
Cc1ccc(C)c(N2CCN(C(=O)C3CCCN(Cc4nc(-c5cccc(Cl)c5)oc4C)C3)CC2)c1 (stereo not given) | x | x | 19%[46.1 µM] | 6% | -1.2% | 6%[46.1 µM] | x | u
CN(Cc1ccon1)Cc1cn(C)nc1-c1ccc2c(c1)OCCO2 | 3% | 2% | 20% | x | x | u | -12% | 6%

The list goes on.
SMILES | NS1 function inh | SARS PLP yeast | Lassa entry inh | Cruzain inh noDet | Cruzain inh Det | MARV entry inh | RE007 growth inh | 2A StopGo
COCC(C)n1c(C)cc(C(=O)COc2ccc(N(C)S(=O)(=O)c3ccc(NC(C)=O)cc3)cc2)c1C (stereo not given) | x | -2% | u | x | x | u | 8% | -28%
CCOC(=O)C1=C(COC(=O)COc2ccccc2C(C)C)NC(=O)NC1C (stereo not given) | x | 1% | 27% | x | x | 12% | -9% | 0%
Cc1ccnc(N2CCCC(C(=O)Nc3cccc(C)c3C)C2)n1 (stereo not given) | 7% | -2% | 7% | x | x | 4%[46.1 µM] | -1% | -3%
COc1cc(C(=O)N(Cc2cc3cc(C)ccc3[nH]c2=O)CC2CCCO2)cc(OC)c1OC (stereo not given) | 1% | 3% | -16% | 2% | -1.7% | -28% | -14% | 9%
CCOC(=O)C1CCN(C(=O)C2(NC(=O)NC3CCCCC3)CCCCC2)CC1 | 1% | -1% | 9%[46.1 µM] | x | x | 5%[46.1 µM] | 5% | 22%
Cc1ccc(C)c(NC(=O)CSc2nnc(CNC(=O)c3cccs3)o2)c1 | x | -2% | 28% | x | x | -1% | 6% | -8%
CCOC(=O)Cn1nc(/C=C/c2ccc(OC)cc2)ccc1=O | x | x | 7% | x | x | -7% | -15% | -6%
CCOC(=O)c1cc2c(s1)-c1ccccc1CC2 | -6% | -1% | 3% | 4% | 4.1% | u | -12% | 33%[activator]
COCCN(Cc1cc2ccccc2[nH]c1=O)C(=O)c1ccccc1OC | -2% | -1% | -8% | -3% | -4.6% | -5%[46.1 µM] | -3% | 16%
COc1ccc(C(=O)NNC(=O)C(Cc2ccc(O)cc2)NC(=O)c2ccccc2NC(=O)c2ccc(OC)cc2)cc1 (stereo not given) | 7% | 19% | -1%&9% | -18% | -2.5% | -18%&-13% | -8% | 0%
O=C(CCc1c[nH]c2ccccc12)NC1CC1 | 3% | 1% | 8% | 6% | 4.7% | 0%[46.1 µM] | 2% | -16%
C/C=C(/C)C(=O)O[C@@H]1c2c(ccc3ccc(=O)oc23)O[C@@H]1C(C)(C)OC(=O)/C(C)=C\C | -43% | -1% | u | 6% | -8.7% | -20% | 12% | -6%
CCOC(=O)c1ccc2c(c1)N(CC(=O)Nc1cc(F)ccc1F)C(=O)c1ccccc1S2 | x | x | -8%[46.1 µM] | 10% | -1.2% | x | x | 9%
O=S(=O)(c1ccc(-c2nnc(SCc3ccccc3)o2)cc1)N1CCCC1 | -2% | 9% | -17% | -9% | -1.8% | -13% | 1% | -10%
Cc1ccc(C)c(CNS(=O)(=O)c2c(C)[nH]c(C)c2C(=O)N2CCCCC2)c1 | -9% | 12% | x | x | x | x | -3% | 9%

Carrying on.
SMILES | NS1 function inh | SARS PLP yeast | Lassa entry inh | Cruzain inh noDet | Cruzain inh Det | MARV entry inh | RE007 growth inh | 2A StopGo
CC(C)OCCCNC(=O)c1cc(S(=O)(=O)N2CCCCC2)c[nH]1 | -10% | 5% | x | x | x | x | -13% | -13%
COc1cccc(NC(=O)CN2CCN(C(=O)c3ccco3)CC2)c1 | -1% | u | -33% | x | x | 29% | 13% | -11%
CCc1c(C)sc2c1CCN(Cc1cccc(OC)c1)C2c1ccccc1 (stereo not given) | x | x | u | -13% | -7.0% | x | x | -10%
CCn1c(CNC(=O)COC)nc2ccccc21 | 10% | -3% | x | -9% | -2.6% | x | -14% | -8%
CC(C)=CCC/C(C)=C/C(N)=O | -3% | 1% | -6% | x | x | 3%[46.1 µM] | 15% | 1%
O=C1OC/C(=C(/O)c2ccc(Cl)cc2)C1=O | -16% | -3% | x | x | x | x | -5% | 5%
COc1cc(OC)cc(C(=O)NCCc2csc(-c3cccc(C)c3)n2)c1 | x | x | -13%[46.1 µM] | 6% | -8.6% | x | x | 0%

Quoted at random: 6 compounds from above, in no set order.
SMILES | NS1 function inh | SARS PLP yeast | Lassa entry inh | Cruzain inh noDet | Cruzain inh Det | MARV entry inh | RE007 growth inh | 2A StopGo
COc1cc(OC)cc(C(=O)NCCc2csc(-c3cccc(C)c3)n2)c1 | x | x | -13%[46.1 µM] | 6% | -8.6% | x | x | 0%
CCn1c(CNC(=O)COC)nc2ccccc21 | 10% | -3% | x | -9% | -2.6% | x | -14% | -8%
CC(C)OCCCNC(=O)c1cc(S(=O)(=O)N2CCCCC2)c[nH]1 | -10% | 5% | x | x | x | x | -13% | -13%
COc1cccc(NC(=O)CN2CCN(C(=O)c3ccco3)CC2)c1 | -1% | u | -33% | x | x | 29% | 13% | -11%
CC(C)=CCC/C(C)=C/C(N)=O | -3% | 1% | -6% | x | x | 3%[46.1 µM] | 15% | 1%
O=C1OC/C(=C(/O)c2ccc(Cl)cc2)C1=O | -16% | -3% | x | x | x | x | -5% | 5%
